NPYLR7 agonist – mosquito NPYLR7 agonism. activation, % at 10 µM. HEK293T NPYLR7/Galpha15, GCaMP6s calcium fluorescence. hit rate 0.15% among 270,000; in the data active means activation above about 40%;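 further: 0% = vehicle and 100% = reference agonist at the receptor; some compounds past the cut are filed as inactive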
NPYLR7 agonist max-min – second read-out of NPYLR7 agonist, no call of its own (marks repeat the call); activation, %; measured here: Max-Min RFU normalised activation; some inactives read as strong as hits;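 span of the calcium signal over five minutes; 0% = vehicle and 100% = native peptide agonist; compound fluorescence can raise it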
Numbers without * were called inactive; & = joins results of further samples. An excerpt (hit frequency here may not be typical).

SMILES	NPYLR7 agonist	NPYLR7 agonist max-min
NC(=O)c1ccc(NC(=O)c2nn(Cc3ccc(S(=O)(=O)N4CCCc5ccccc54)cc3)c3ccccc23)cc1	23	22
NP(=O)(OCC(F)(F)F)Oc1ccccc1 (stereo not given)	2	3
Cc1cc(C)n2ncc(CN3CCCC4(CCNC4)C3)c2n1 (stereo not given)	8	5
OC1/C(=C/c2cc3ccccc3o2)N2CCC1CC2 (stereo not given)	-1	-3
Cc1cc(C2C[C@H]3CC[C@@H](C2)N3Cc2cc3n(n2)CCNC3)ccc1F (stereo not given in full)	19	14
NC1CCCCC1c1ccc(C(F)(F)F)cc1 (stereo not given)	1	0
Cc1nn(-c2ccccc2)c(C)c1C1SCC(=O)Nc2ccsc21 (stereo not given)	1	-2
O=S(=O)(c1ccc(C(F)(F)F)cc1)N1CCN(CCOC(c2ccc(Cl)cc2)c2ccc(Cl)cc2)CC1	29	19
O=C(Cc1ccc(F)cc1)N1CCN(Cc2ccc(-c3noc(-c4ccccc4)n3)cc2)CC1	3	2
COC(=O)C1C(=N)Oc2cc(C)n(Cc3ccco3)c(=O)c2C12C(=O)N(C)c1ccccc12 (stereo not given)	0	-1
CN(CCc1c[nH]c2ccc(NC(=O)C(F)(F)C(F)(F)C(F)(F)F)cc12)C1CCCCC1	5	3
CC(=O)C(NC(=O)CCl)C(C)C (stereo not given)	0	6
CN1CCC(N(C)c2ncnc3ccc(Br)cc23)CC1	7	6
COCc1cc(C2SCC(=O)Nc3c2c(=O)[nH]n3C(C)C)ccc1OC (stereo not given)	-1	-2
COc1cc(O)cc2c1C(=O)OC(C)CCCC(=O)CCCC=C2 (stereo not given)	-1	-2

Record cards, from the list above:
O=C(Cc1ccc(F)cc1)N1CCN(Cc2ccc(-c3noc(-c4ccccc4)n3)cc2)CC1 is entered as NPYLR7 agonist: 3; NPYLR7 agonist max-min: 2
CN(CCc1c[nH]c2ccc(NC(=O)C(F)(F)C(F)(F)C(F)(F)F)cc12)C1CCCCC1 is entered as NPYLR7 agonist: 5; NPYLR7 agonist max-min: 3

Returning to the listing; the three compounds before the break are reprinted first.
SMILES	NPYLR7 agonist	NPYLR7 agonist max-min
CN1CCC(N(C)c2ncnc3ccc(Br)cc23)CC1	7	6
COCc1cc(C2SCC(=O)Nc3c2c(=O)[nH]n3C(C)C)ccc1OC (stereo not given)	-1	-2
COc1cc(O)cc2c1C(=O)OC(C)CCCC(=O)CCCC=C2 (stereo not given)	-1	-2
Fc1cccc([C@H]2CN(Cc3ccco3)[C@@H]3C4CCN(CC4)[C@H]23)c1F	12	10
O=C(N/N=C\c1ccc([N+](=O)[O-])o1)c1cc([N+](=O)[O-])cc([N+](=O)[O-])c1O	-3	1
NP(=O)(OCC(F)(F)F)Oc1cccc2ccccc12 (stereo not given)	6&9	7&1
Cc1nn(C(C)(C)C)c(C)c1C(=O)NC(C)c1cccc(F)c1 (stereo not given)	7	4
CN1CC2(CCN(c3ncnc4nc[nH]c34)CC2)CC1C(=O)O (stereo not given)	3	2
CN(Cc1ccccc1)C(=O)c1ccc(Cn2nc(C(=O)NCCCN3CCCC3=O)c3ccccc32)cc1	15	21
CCCC(C)(COC(N)=O)COC(=O)NC(C)C (stereo not given)	-4&-2&-4&1	-9&-8&-11&3
C=C(C)[C@H]1CCC(C)=C[C@@H]1c1c(O)cc(CCCCC)cc1O	-6	-15
Cc1ccc(Cl)c2sc(N3CCNCC3)nc12	-2	-4
O=P(Nc1cccc2nsnc12)(Oc1ccccc1)Oc1ccccc1	0	-1
O=[N+]([O-])c1ccccc1CN1CCN(c2ccc(F)cc2)CC1	6	4
O=c1[nH]c(O)c(N=Nc2ccc(SC(F)F)cc2)c(=O)[nH]1	14	16
C=C(C)COc1cccc(C2NCCc3[nH]cnc32)c1 (stereo not given)	0	0
COc1cc(OC)cc(C(=O)Nc2ccc3[nH]cc(CCN(C)C4CCCCC4)c3c2)c1	25	33
CC(C)(C)n1cc(C(=O)O)c(-c2ccc(F)cc2F)n1	16&5	7&3
O=P(OCC(F)(F)F)(OCC(F)(F)F)OCC(F)(F)F	-10	-18
CN(C)P(=NC(=S)Nc1ccccc1)(N(C)C)N(C)C	-32	-38
Fc1ccc(CN2CCN(Cc3ccc4c(c3)OCO4)CC2)cc1	20	20
CCc1ccc(CN2CCC3(CC2)CN(C)CCN3C)nc1	-6	-3
O=S(=O)(c1ccccc1OC(F)(F)F)N1CCN(CCOC(c2ccc(Cl)cc2)c2ccc(Cl)cc2)CC1	30	19
O=C(c1ccco1)N1CCSC12CCNCC2	12	12
O=C(CN1C(=O)CSC(c2ccc(F)cc2F)c2c(-c3ccccc3)nn(-c3ccccc3Cl)c21)N1CCCC1 (stereo not given)	10	9
C#CC1(C)CCC2C(O1)c1ccccc1OC2(C)C (stereo not given)	-4	-4
COc1ccccc1CC(=O)N1CCN(Cc2ccc(-c3noc(-c4cccnc4)n3)cc2)CC1	2	-2
CCC(=O)OC1(c2ccccc2)CCN(C)CC1C (stereo not given)	-18	-26
O=C(c1cccc(Br)c1)N1CCSC12CCNCC2	12	13
Cc1cccc(C(C(=O)NCCc2cnc[nH]2)N(C)C)c1 (stereo not given)	7	5
CCOc1ccc(N2CCNCC2)cc1	6	3
CC1CCCN(C(=O)c2cn(Cc3ccccn3)cc(C(=O)NC3CCCCCCC3)c2=O)C1 (stereo not given)	16	5
O=C1CC(c2ccc3c(c2)OCO3)c2c(c3ccccc3oc2=O)O1 (stereo not given)	-1	-3
CC(=O)OC1(c2ccccc2)CC(C(C)(C)C)CN(C(C)(C)C)C1 (stereo not given)	-13	-18
C=CCn1cc(CN2CCN(C(C)C)CC2)c(C)n1	-2	-6
CC(C)c1c(CN(C)C(C)Cc2ccccc2)n(C)n(-c2ccccc2)c1=O (stereo not given)	-2	-7
O=C1NC(=O)N(c2ccc(Cl)cc2)C(=O)/C1=C\c1ccco1	5	3
Cc1ccc2c(c1)C1CN(C)CCC1N2 (stereo not given)	2&-3	-3&-4
C#CCN1CCCC2(CCOC(C)(CC)C2)C1 (stereo not given)	3	-1
O=P(C=C(Cl)c1ccccc1)(C=C(Cl)c1ccccc1)N1CCOCC1	27	19
c1ccc(CCN2CCCC3(CCNC3)C2)cc1 (stereo not given)	3	0
S=C(Nc1ccc(Cl)c(Cl)c1)NC1CN2CCC1CC2 (stereo not given)	8	12
CCOC(=O)C1=C(C)OC(=N)C(C(=O)OCc2ccccc2)C12C(=O)Nc1ccccc12 (stereo not given)	-23	-13
O=C1C2(c3ccccc3)CN3CCN(C2)CC1(c1ccccc1)C3	-1	-11
CN1CC(=O)N(Cc2ccc(Cn3nc(C(=O)N(C)Cc4ccco4)c4ccccc43)cc2)c2ccccc2C1=O	-4	-10
Cc1ccc(F)c(-n2nnnc2CN2CC=C(c3cccs3)CC2)c1	2	-3
Cc1ccc2nc(CCNC(C)C)[nH]c2c1	1	-2
CCCN1CCO[C@@H]2c3cc(O)ccc3OC[C@H]21	2&-1	-30&-10
C=CCN(CP(=O)(OCC)OCC)C(C)=O	-3	-6
Cc1ccc(C(=O)N2CCC(NC(C)Cc3ccccc3F)CC2)cc1 (stereo not given)	1	-2
CCOc1ccc(-c2cccc3c2CCNC3)nn1	1	-9
N#CC1=C(NC2=CC(=O)CCC2)SC2CCCCCC12 (stereo not given)	-10	-13
O=C(Cc1cccc(F)c1)N1CCN(Cc2cccc(-c3noc(C4CCCC4)n3)c2)CC1	4	2
O=C1C2CCCC1C(N1CCCC1)CC2 (stereo not given)	-4	-5
O=C1NC(=O)C2(CCOCC2)C(=O)N1	1	-1
CC(=NNP(=S)(c1ccccc1)c1ccccc1)c1ccc2c(c1)OCO2	12	11
Cc1ccc(C(=O)NC2CCN(c3ccc(C#N)c(Cl)c3)CC2)o1	7	3
CC(C)NP(=O)(NC(C)C)OP(=O)(NC(C)C)NC(C)C	1	0
CC(=O)c1cc(C(C)(C)C)cc2c1CCC2(C)C	6	16
O=c1[nH]c2ccccc2n1C1CCN(Cc2cc3n(n2)CCCNC3)CC1	7	4
Cc1nc(SCc2ccccc2)[nH]c(=O)c1CC(=O)N1CCN(Cc2ccccc2)CC1	-11	-19
NCCc1c[nH]c2ccc(Cl)cc12	3	3
COc1ccc(N(C)C(=O)c2ccc(Cn3nc(C(=O)N4CCN(C(=O)C5CCCO5)CC4)c4ccccc43)cc2)cc1 (stereo not given)	1	21

For reference, some entries already given:
SMILES	NPYLR7 agonist	NPYLR7 agonist max-min
O=C(Cc1cccc(F)c1)N1CCN(Cc2cccc(-c3noc(C4CCCC4)n3)c2)CC1	4	2
O=C1C2CCCC1C(N1CCCC1)CC2 (stereo not given)	-4	-5

A different layout for part of the listing above:
Results follow in this order: NPYLR7 agonist	NPYLR7 agonist max-min
- CCc1ccc(CN2CCC3(CC2)CN(C)CCN3C)nc1
    -6	-3
- C=C(C)[C@H]1CCC(C)=C[C@@H]1c1c(O)cc(CCCCC)cc1O
    -6	-15
- c1ccc(CCN2CCCC3(CCNC3)C2)cc1 (stereo not given)
    3	0
- COC(=O)C1C(=N)Oc2cc(C)n(Cc3ccco3)c(=O)c2C12C(=O)N(C)c1ccccc12 (stereo not given)
    0	-1
- C=CCN(CP(=O)(OCC)OCC)C(C)=O
    -3	-6

Other structures
SMILES	NPYLR7 agonist	NPYLR7 agonist max-min
Cc1ccccc1-n1nc(-c2ccccc2)c2c1N(CC(=O)NCc1cccnc1)C(=O)CSC2c1cccs1 (stereo not given)	29	37
O=C(NOCc1ccccc1)c1nn(Cc2ccc(-c3ccccc3)cc2)c2ccccc12	25	24
O=C1C=CC(=O)c2c(O)cccc21	2	-2
c1cn(CCc2cnc[nH]2)c(C2CCOC2)n1 (stereo not given)	-6	-8
O=C1C=CC[C@@H]2[C@H]3CCCN4CCC[C@@H](CN12)[C@@H]34	4	0
CCOC(=O)C1=C(c2ccccc2)NC(=O)C2OCCC12 (stereo not given)	-3	-6
CCSc1nc(CC(=O)N2CCN3CCNC(=O)C3C2)cs1 (stereo not given)	14	0
COP(=S)(OC)C1=C(N2CCCCC2)C(=Cc2ccccc2)CC1	2	3
COc1ccc(OC)c(C=C2C(=O)NC(=S)NC2=O)c1	2	-5
CC(=O)C1(c2ccccc2)CCNCC1	2	-2
COC(=O)C(C)(C)N1CC1C(N)=O (stereo not given)	0	-4
CCN1CC2([N+](=O)[O-])C=CC(=O)C([N+](=O)[O-])(C1)C2 (stereo not given)	2	4
CSc1ncc(CNCCSCc2ccco2)c(N(C)C2CCN(C)CC2)n1	24	20
CN1CCN(C(=O)Cc2cccc(NC(=O)c3cccs3)c2)CC1	-14	-8
CC(=O)c1ccc(NC(=O)c2cccn(Cc3ccccc3F)c2=O)cc1	9	4
O=C(c1ccccn1)C1CCCN(Cc2cc3n(n2)CCNC3)C1 (stereo not given)	5	3

Compound activity deposited in PubChem BioAssay by Fisher Drug Discovery Resource Center.
